Screening data: PubChem, Molecular Libraries Program, Specialized Chemistry Center, University of Kansas
MgcRacGAP Rac1 = inhibition of MgcRacGAP-stimulated Rac1 GTP hydrolysis – biochemical, inorganic phosphate detection, orthogonal assay, confirmation (AID 652142). 2,400 tested, under 10 active. inhibition, %. MgcRacGAP/Rac1F28L GTP hydrolysis, Biomol green phosphate; hits give high values; test concentration not given here; none was called active though about 1 in 100 pass the limit;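 active means inhibition over three standard deviations or about 65%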;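 further: full inhibition control lacks the GAP enzyme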
Numbers without * were called inactive; & = joins results of further samples. A portion of the library; count on the stated rates, not on these rows.

SMILES	MgcRacGAP Rac1
COc1ccccc1-n1c(/C=C/c2ccc(O)cc2)nc2ccccc2c1=O	41
COc1ccc(CCNCc2cccc(C(F)(F)F)c2)cc1OC	9
CN(C)c1ccc(/C=C/C=C/c2sc3ccccc3[n+]2C)cc1	27
CSc1ccc(CN2CCN(Cc3ccccc3Cl)CC2)cc1	14
COc1ccccc1N1CCN(Cc2cccc(Br)c2)CC1	26
Cc1cc(-c2ccc(N)c(C)c2)ccc1N	20
COc1cc(/C=C/c2nc3ccccc3c(=O)n2-c2ccccc2O)ccc1O	27
COc1cc(/C=N/NP(=S)(c2ccccc2)c2ccccc2)ccc1O	15
O=C(O)c1ccc(-n2c(O)c(/C=C3\C=Nc4ccccc43)c(=O)[nH]c2=O)cc1	23
O=[N+]([O-])c1ccc2c(c1)Cc1cc(O)ccc1-2	25
CN1C2CCC1/C(=C/c1ccccn1)C(=O)/C2=C\c1ccccn1	39
Nc1ccc(-c2ccc(N)cc2)cc1	26
c1ccc2c(c1)Nc1ccccc1S2	19
CN(C)c1ccc(/C=C/c2cc[n+](C)c3ccccc23)cc1	69&20
COc1ccc(N2CC2c2ccncc2)cc1 (stereo not given)	27
CCN(CCCl)c1cc(CN(C)C)cc(NC(=O)c2ccc(C(=O)Nc3cc(CN(C)C)cc(N(CC)CCCl)c3)cc2)c1	37

Of the compounds above, these contain a halogen.
SMILES	MgcRacGAP Rac1
COc1ccc(CCNCc2cccc(C(F)(F)F)c2)cc1OC	9
CSc1ccc(CN2CCN(Cc3ccccc3Cl)CC2)cc1	14
COc1ccccc1N1CCN(Cc2cccc(Br)c2)CC1	26
CCN(CCCl)c1cc(CN(C)C)cc(NC(=O)c2ccc(C(=O)Nc3cc(CN(C)C)cc(N(CC)CCCl)c3)cc2)c1	37

Random excerpt: 4 records from the list
SMILES	MgcRacGAP Rac1
Nc1ccc(-c2ccc(N)cc2)cc1	26
COc1ccccc1-n1c(/C=C/c2ccc(O)cc2)nc2ccccc2c1=O	41
COc1ccc(N2CC2c2ccncc2)cc1 (stereo not given)	27
CN(C)c1ccc(/C=C/c2cc[n+](C)c3ccccc23)cc1	69&20
